ClpP mod = qHTS Assay for Activators of ClpP; ATP-dependent Clp protease proteolytic subunit (Bacillus subtilis (strain 168)), P80244; purified B. subtilis ClpP, FRET peptide cleavage, 20 min; Potency, µM (titrated, usually from 57.5 µM), for the others: at the top dose activity change, negative = active; actives 1.9% (n = 340,000); AID 651965, 2013; active = well fitted falling curve with a large enough effect; inconclusive = small, poorly fitted or top-dose-only effect; inactive = no such curve, though single readings can be large or run the other way; note: potency is the fitted concentration of half-maximal effect; the source files actives as falling curves though it sought activators and does not explain the sign; nearly all actives have a fitted effect of over 65% in size; many hits overshoot -100%
Target sequence (P80244 whole entry, looked up): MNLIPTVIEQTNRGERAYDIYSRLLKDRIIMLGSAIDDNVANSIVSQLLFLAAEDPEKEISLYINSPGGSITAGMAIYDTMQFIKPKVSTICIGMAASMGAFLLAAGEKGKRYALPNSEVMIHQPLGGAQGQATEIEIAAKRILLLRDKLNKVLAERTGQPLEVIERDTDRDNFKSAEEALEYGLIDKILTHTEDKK
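Purified B. subtilis ClpP, 10 microg/mL final in Tris/HCl pH8 with KCl, BSA, glycerol and Tween-20, cleaved an Abz/nitrotyrosine-quenched decapeptide. Fluorescence (ex 320, em 430) was read at 0 and 20 min at room temperature. Delta was normalized to 5.8 microM ADEP and DMSO/no-enzyme controls.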
Menin MLL FP FL = displaces fluorescein MLL peptide from human menin; Fluorescence polarization, fluorescein-MLL peptide displacement from menin; 290,000 tested, under 10 active; FP activity change, % at 61.4 µM; inconclusive = falling polarisation curve, or a change in total fluorescence; inactive = total fluorescence flat and polarisation flat or rising; no compound was filed as active; the % refers to the polarisation; negative = inhibition;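 note: % of control where 0% means no effect; inhibitors lower the polarisation; unlabelled MLL peptide was the positive control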
Sfp PPTase inh = blocks B. subtilis Sfp PPTase activity | Q9F4F7 | Biochemical Sfp PPTase activity, qHTS | Potency, µM, for inactives: max response, negative = inhibition, usual class: inhibitors | actives 3.5% (n = 310,000) | AID 1490; active = well fitted inhibition curve with a large enough effect; inconclusive = small, poorly fitted or top-dose-only effect, or another doubt; inactive = no such curve, though single readings can be large or run the other way;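 note: the enzyme is Sfp with the accession as filed and its product quenches rhodamine fluorescence; potency is the fitted concentration of half-maximal effect; 0% = enzyme reaction without inhibitor and -100% = no enzyme wells; top concentration of the series not given in the record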
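Fluorescence-quenching assay with 15 nM Sfp, 5 uM rhodamine-CoA and 12.5 uM BHQ-2-labelled ybbR peptide in pH 7.6 Hepes/MgCl2 buffer. Enzyme was pre-incubated with compound for 15 min at room temperature. Rate was taken from the 30-min fluorescence change (525/598 nm).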
gsp antag = antagonizes gsp, the McCune-Albright syndrome mutation. actives 0.4% (n = 340,000). Potency, µM (doses to about 76.9 µM), for inactives: at the highest dose activity change, negative = inhibition, hits mostly inhibitors. gsp-mutant cells, cAMP HTRF, 30 min; control for the full effect not named in the record; active = falling curve of any shape with a large fitted effect; inconclusive = falling curve, mostly with a smaller effect; inactive = flat or rising curve; cell line not stated here;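 note: intracellular cAMP measured with PDE inhibitor Ro 20-1724 present during compound exposure; potency is the fitted concentration of half-maximal effect; % is set by controls: 0 for no effect and ±100 for the full control effect; nearly all actives have a fitted effect of over 65% in size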
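Cells in G418 medium, seeded 16-24 h, 37C; buffer exchange to DPBS + 1 mM CaCl2, 0.5 mM MgCl2, 0.05% BSA; cpds in DMSO + […] (300 uM stock), 30 min 37C; HTRF cAMP detection.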
TRPV1 PAM = enhances activation of the human vanilloid receptor TRPV1 | TRPV1-expressing cells, Fluo-8 calcium influx, capsaicin EC20 potentiation; host cell line not named in the record; control for the full effect not named in the record | potentiation, % at 8.33 µM | actives 0.02% (n = 320,000) | AID 540277; active means potentiation above 80%; inconclusive means 30% to 80%; inactive means below 30%; note: 0% is about no effect
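Fluo-8 calcium influx in TRPV1-expressing cells, kinetic read (ex 480/em 520 nm). Compound added and read 3 min for agonist activity, followed by capsaicin at EC20 final and 2 min further read for enhancement.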
D2 PAM = potentiates the human D2 dopamine receptor allosterically. P14416. DiscoveRx D2 beta-arrestin cells, luminescence, 90 min; 100% = 57 uM dopamine signal. potentiation, % (test concentration not listed). actives 0.23% (n = 360,000). AID 624464; active = potentiation of 50% or more; inconclusive = 30% to 50%; inactive = 30% or less;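 note: compound concentration not given in the record; tested on top of an EC20 dose of dopamine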
Target sequence (P14416 whole entry, looked up): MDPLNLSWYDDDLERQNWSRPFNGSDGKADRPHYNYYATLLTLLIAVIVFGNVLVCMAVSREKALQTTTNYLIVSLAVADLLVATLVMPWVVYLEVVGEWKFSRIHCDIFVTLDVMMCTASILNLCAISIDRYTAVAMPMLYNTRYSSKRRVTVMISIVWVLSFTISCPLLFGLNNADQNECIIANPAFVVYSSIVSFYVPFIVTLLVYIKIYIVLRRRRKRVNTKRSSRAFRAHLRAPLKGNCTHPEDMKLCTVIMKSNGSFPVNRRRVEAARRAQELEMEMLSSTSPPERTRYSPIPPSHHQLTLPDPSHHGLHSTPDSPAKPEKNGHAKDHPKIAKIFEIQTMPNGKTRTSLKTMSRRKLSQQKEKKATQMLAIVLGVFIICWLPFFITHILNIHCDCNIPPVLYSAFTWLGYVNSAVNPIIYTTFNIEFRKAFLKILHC
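PathHunter D2 cells, attached overnight at 37 deg C, received compound in DMSO plus dopamine at EC20 (50 nM final) for 90 min at 37 deg C. Beta-arrestin recruitment was read as luminescence after 1 h with detection reagent at ambient temperature.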
gsp ag = activates gsp, the McCune-Albright syndrome mutation | actives 0.13% (n = 340,000) | Potency, µM (titrated, usually from 76.9 µM), without a hit: at the highest dose activation (cAMP increase), most hits filed as activators | AID 624287 | gsp mutant cells, cAMP HTRF, 30 min; control for the full effect not named in the record; active = well fitted activation curve with a large enough effect; inconclusive = small, poorly fitted or top-dose-only effect, or another doubt; inactive = no such curve, though single readings can be large or run the other way; cell line not stated here;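 note: phosphodiesterase inhibitor Ro 20-1724 added with compounds to block cAMP breakdown; potency is the fitted concentration of half-maximal effect; nearly all actives have a fitted effect of over 60% in size; about a fifth of the inactives were tested at one dose only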
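Cells in DMEM/10% FBS with G418 were pretreated with compounds in DMSO plus […] (300 uM stock) for 30 min at 37C. cAMP was measured by HTRF (cAMP-d2 plus anti-cAMP antibody-K) after 30 min at room temperature.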
* = called active by the depositor; i = inactive; u = inconclusive; x = not tested or not shown; & = joins results of further samples; [ ] = dose if it differs, or a comment.

SMILES | ClpP mod | Menin MLL FP FL | Sfp PPTase inh | gsp antag | TRPV1 PAM | D2 PAM | gsp ag
O=C(O)C1C2C=CC(C3CC23)C1C(=O)O (stereo not given) | -0.2% | 4.9 | 8.0% | 10.6% | 2.0 | 4.7 | -1.7%
O=C(c1cccc(C(F)(F)F)c1)C1CCCN(Cc2cccc(OCCO)c2)C1 (stereo not given) | -1.2% | 0.6 | -10.7% | 7.9% | 3.6 | -17.8 | 0.8%[15.4 µM]
CC1CCN(S(=O)(=O)c2cnc[nH]2)CC1 | -0.3% | x | 4.4% | -3.8% | 21.2 | -4.1 | 0.5%
CCNc1nc(NCC)n2c(SCC(=O)Nc3ccccc3F)nnc2n1 | x | x | x | 6.4% | 8.6 | -67.4 | -30.9%[15.4 µM]
CCC(=O)c1ccc(OCC(=O)OCC(=O)NCc2cccs2)cc1 | -2.3% | x | x | -9.1% | 5.4 | 1.0 | 14.2%
CS(=O)(=O)N1CCCC(C(=O)Nc2ccc(F)cc2F)C1 (stereo not given) | x | -5.3 | 21.2% | -3.0% | 0.3 | -5.4 | 29.1%
Cc1cc(C)n2nc(SCc3ccc(C#N)cc3)nc2n1 | -8.1% | 3.3 | 5.6% | -4.5% | 4.2 | -5.9 | -4.3%[15.4 µM]
COc1ccccc1Cn1c(=S)[nH]c2cc(C(=O)N3CCC(C(N)=O)CC3)ccc2c1=O | 0.8% | 0.8 | u | 14.0% | 7.8 | 0.6 | u
CCCN(C(=O)CSc1nnnn1C)C1CCS(=O)(=O)C1 (stereo not given) | x | -5.9 | 17.3% | x | 4.0 | -4.3 | 0.2%[15.4 µM]
N#CCCn1cc(C=C(C#N)C#N)c(-c2ccc(-c3ccccc3)cc2)n1 | -12.7% | u | u | 0.2% | 8.2 | -8.5 | 1.1%
COC(=O)CCC(=O)NS(=O)(=O)c1ccc(N=NN2CCOCC2)cc1 | 0.7% | -2.3 | 7.8% | -4.0% | 2.5 | -3.8 | 10.6%
Cc1cccc(C(=O)N[C@H](C(=O)NCCc2ccc(S(N)(=O)=O)cc2)C(C)C)c1 | x | -2.3 | 5.6% | 7.3% | 16.5 | -2.3 | -13.6%
CN(C)CCOC(=O)NCC12CC3CC(CC(C3)C1)C2 | x | 4.5 | 14.5% | -3.7% | 3.2 | -15.7 | 1.5%[15.4 µM]
COCc1cc(Sc2ccc(OC)cc2)nc(-c2ccccc2)n1 | x | -5.8 | 8.3% | 15.1% | 6.8 | -7.3 | -1.0%[15.4 µM]
O=S(=O)(c1ccccc1C(F)(F)F)N1CCN(CC(O)COc2ccccc2F)CC1 (stereo not given) | 1.6% | -10.7 | u | 4.0% | 3.7 | -32.6 | -49.6%[inhibitor]
Cc1ccc(N(CC(=O)O)C2SC(=O)NC2=O)cc1 (stereo not given) | -1.7% | 3.7 | 21.5% | 10.1% | 13.6 | -0.1 | -1.5%
COc1ccc2c3c(c(=O)oc2c1)C1O[C@](c2ccsc2)(Cc2cc(C#N)ccc21)O3 | x | 15.1[11.7 µM] | -10.2% | x | i | x | x
O=S(=O)(NCC(c1ccco1)N1CCc2ccccc2C1)c1ccc(F)cc1 (stereo not given) | x | x | x | -3.2% | 13.5 | -7.8 | -0.7%[15.4 µM]
Cc1ccc(S(=O)(=O)Nc2cccc3c2O[C@H](CN(C)C(=O)Nc2cccc4ccccc24)[C@H](C)CN([C@H](C)CO)C3=O)cc1 | 3.7% | x | x | -24.5% | x | -5.8 | x
COc1ccc(C)cc1NC(=O)COC(=O)c1ccc2c(c1)OCCO2 | -1.7% | x | x | 14.5% | -7.0 | 1.2 | 22.9%
COc1ccc(C(=O)NNC(=O)c2ccccc2[N+](=O)[O-])cc1Br | -3.8% | 0.4 | 1.4% | 5.2% | 2.7 | -31.2 | -22.2%
O=C(Nc1nc(-c2ccccn2)cs1)C1CCCC1 | x | -3.4 | u | -5.0% | 1.0 | 0.3 | 6.7%[15.4 µM]
Clc1cccc(N/N=C/c2ccc(N3CCOCC3)cc2)c1 | -6.9% | 7.0 | 8.2% | -2.9% | 1.4 | 5.7 | 8.7%
COC(=O)c1ccccc1NC(=S)NC(NC(=O)c1ccco1)C(Cl)(Cl)Cl (stereo not given) | -23.4% | 2.3 | -3.0% | -14.1% | 4.0 | 1.4 | -28.3%
c1ccc(-c2ccc(CNC3CC3)cc2)cc1 | -1.3% | -0.2 | 6.4% | -5.5% | -10.7 | -33.0 | -42.6%[inhibitor]
COc1ccccc1N1CCN(S(=O)(=O)c2c(C)[nH]c(C)c2C(=O)N2CCCCC2)CC1 | 0.7% | 2.4 | 22.1% | 5.3% | 11.3 | -6.7 | 18.5%
O=C(NNC(=O)c1ccccc1[N+](=O)[O-])c1cnccn1 | -2.6% | 5.2 | u | 7.5% | 1.7 | 4.3 | 0.4%
CC1CCN(S(=O)(=O)c2ccc(C(=O)Nc3nnc(-c4ccncc4)o3)cc2)CC1 | x | -0.5 | 17.5% | -22.3% | -5.1 | -0.3 | 23.0%
COc1ccc(Cc2nc3ccc(C(=O)N(C)Cc4nccs4)cc3o2)cc1OC | -2.0% | x | 0.9% | -2.8% | 5.9 | 0.7 | -28.4%
CCOc1ncccc1C(=O)NNC(=O)c1ccc(NS(=O)(=O)c2cccs2)cc1 | u | x | x | 3.5% | -1.6 | -14.9 | -10.8%[15.4 µM]
O=C1Cc2ccccc2N1c1ccccc1 | 0.1% | 2.4 | -10.8% | -12.8% | -7.3 | 2.9 | -31.0%
C[C@@H]1CCCCO[C@@H](CN(C)Cc2ccc3c(c2)OCO3)[C@@H](C)CN([C@H](C)CO)C(=O)c2cc(N(C)C)ccc2O1 | -3.5% | x | x | x | x | -0.4 | -98.2%[inhibitor]
O=C(O)c1c(Cl)c(Cl)c(Cl)c(Cl)c1C(=O)N1CCCCCC1 | 31.6µM* | -5.9 | 4.6% | -30.4% | 9.6 | -8.1 | 32.2%[15.4 µM]
Cc1nc2c(C)c(C)c(C)c(C)c2nc1C | x | 0.3 | 2.3% | 8.8% | -1.1 | -0.2 | -6.0%[15.4 µM]
CCOC(=O)c1oc2ccccc2c1NC(=O)CN1CCN(C)CC1 | -23.7% | 1.1 | 11.7% | -6.1% | u | -4.0 | 14.4%[15.4 µM]
Cc1ccc(NC(=O)c2ccc3nc[nH]c3c2)cc1C | 0.1% | 2.2 | -0.8% | 0.4% | -18.8 | 4.2 | -15.3%
O=C(NCC(=O)N1CCN(c2ccccc2O)CC1)c1ccco1 | -4.0% | 2.4 | 16.0% | 6.3% | 0.1 | 6.1 | u
Cc1nc2ccccc2c2oc(C(=O)NC3CC3)cc12 | -0.4% | -2.0 | 24.7% | 3.2% | -5.3 | 0.9 | -31.6%[inhibitor]
Cc1ccccc1N(C(=O)c1ccccn1)C(C(=O)NCc1ccccc1)c1ccncc1 (stereo not given) | 0.5% | 1.7 | -2.9% | -11.3% | 11.6 | 5.2 | 0.1%[15.4 µM]
Cc1ccc(C(=O)NC(NCC2CCCO2)C(Cl)(Cl)Cl)cc1 (stereo not given) | -3.0% | 0.6 | 15.5% | -1.9% | -0.4 | 8.8 | 7.2%
Cc1nc2n[nH]c(N)c2c2c1COC(C)(C)C2 | -3.4% | -2.1 | 10.5% | 8.1% | -2.2 | 1.1 | -7.3%
Cn1c(CO)cnc1SCc1ccc([N+](=O)[O-])cc1 | -2.0% | 7.7 | 5.0% | 4.9% | x | -25.7 | 19.0%
COc1ccc(Cl)c2sc(N3CCN(C(=O)C4=COCCO4)CC3)nc12 | -0.5% | x | x | -12.6% | -12.9 | -13.0 | 11.4%
OCCC1CN(Cc2ccc3cc(Cl)ccc3n2)CCN1Cc1ccsc1 (stereo not given) | x | 3.6 | 2.2% | 13.1% | 2.3 | -20.9 | -29.1%
NC(=O)NC(=O)COC(=O)c1sc2ccccc2c1Cl | -4.9% | 5.4 | 6.8% | u | x | -3.5 | u
COCCN(C(=O)c1ccccc1)c1nc(-c2ccc(OC)cc2)cs1 | 0.0% | -6.3 | 10.5% | -18.9% | 0.2 | -6.0 | 0.5%
O=C(/C=N/O)NCCCN1CCCCCC1 | -2.8% | -1.5 | 1.7% | 6.3% | 8.1 | -5.8 | -24.0%
Cc1cc(C)cc(N(CC(=O)Nc2cccc(C)c2C)S(=O)(=O)c2c(C)[nH]c(=O)[nH]c2=O)c1 | 0.7%&-0.5% | x | 8.2% | -7.7% | -2.0 | -6.3 | -2.7%
CCc1ccccc1NC(=O)c1ccc(F)c(S(=O)(=O)N2CCC(C(N)=O)CC2)c1 | -1.8% | 7.4 | 16.0% | -1.6% | 11.7 | -5.4 | -45.8%[inhibitor]
Cc1ccc(C)c(COC(=O)c2cc([N+](=O)[O-])ccc2N2CCOCC2)c1 | x | x | x | -13.0% | -14.5 | -15.0 | -15.7%[15.4 µM]
The list goes on.
SMILES | ClpP mod | Menin MLL FP FL | Sfp PPTase inh | gsp antag | TRPV1 PAM | D2 PAM | gsp ag
COCc1[nH][nH]c(=O)c1C=Nc1ccc(F)cc1F | 0.3% | 2.9 | -10.1% | -27.3% | 11.2 | 2.4 | -6.9%[15.4 µM]
C[N+]1(CCOC(=O)C2(c3ccccc3)CCCC2)CCCCC1 | x | 0.1 | 5.8% | -23.3% | 4.7 | -11.3 | 3.2%[15.4 µM]
COc1ccc(C)cc1NC(=O)C1CCCCN1S(=O)(=O)c1ccccc1 (stereo not given) | 0.5% | x | x | u | x | -2.6 | -60.9%[inhibitor]
CCc1nn(CCCC(=O)NCc2ccccc2C)c(=O)c2cc3occc3n12 | -1.5% | x | 13.3% | -13.6% | 6.7 | -12.8 | u
COc1cc(C(=S)N2CCCC2)ccc1OCC(N)=O | u | -0.1 | 1.9% | 5.5% | 9.8 | -0.8 | 17.9%[15.4 µM]
C[C@@H]1CN([C@H](C)CO)S(=O)(=O)c2ccc(C#Cc3ccccc3F)cc2O[C@@H]1CN(C)C(=O)Cc1ccccc1 | u | x | x | x | x | -7.9 | -86.8%[inhibitor]

Assay outcomes (PubChem)
